Assay outcomes (PubChem BioAssay)
Mtb hypoxia inh – Mtb hypoxia fluorescent reporter inhibition; fluorescence inhibition, % (concentration not given with the values); hit rate 0.1% among 300,000; M. tuberculosis hypoxia-regulated fluorescent reporter, fluorescence;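 active means 35 to 45% if threefold the growth effect, above 45% if 1.5-fold the growth effect; inactive means the rest, general growth blockers included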;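 further: wells of about 50 µL received 100 nL stock; 0% = vehicle wells and 100% = reference inhibitor wells; whole bacteria with a GFP reporter of the hypoxia response; strong numbers were not always called active; many hits fall short of the cut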
Sa RN4220 lethal – S. aureus RN4220 growth inhibition; hit rate 0.33% among 330,000; inhibition, % (no concentration beside the values); OD600, 16 h; AID 1259311;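 active means z-score of -3 or lower and OD600 up to 0.18 on both plates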;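 further: plate controls were untreated cells for no effect and reference antibiotic for full effect; stock transfer was 100 nL into about 80 µL; one replicate is shown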
PrP UTR inh – inhibition of PrP 5' UTR reporter expression. cell-based PrP 5' UTR mRNA reporter, plate reader. inhibition, % (no concentration beside the values). hit rate 0.35% among 340,000;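 active means every replicate at 50% or more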;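 further: 0 = median of the neutral control wells; tested in H4 reporter cells; numbers are from one replicate; inactives centre near -14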
Autofluor counter – compound fluorescence in toxin protease inhibitor counterscreen; fluorescence intensity (concentration not given with the values); compound autofluorescence counterscreen, microsphere flow cytometry; hits give high values; AID 624483; hit rate 3.1% among 360,000;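 active means at least 3 SD above the mean of all compounds, about 16000 in these data; inconclusive means too few beads counted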;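 further: 100 nL of 1 mM stock went into each well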
Sa ugtP lethal – compounds lethal to S. aureus RN4220 ugtP deletion mutant; OD600 growth, 16 h; some inactives read as strong as hits; hit rate 0.54% among 330,000; AID 1259309; growth inhibition, % (no concentration beside the values);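 active means z-score under -3 and OD600 up to 0.15 on both plates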;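 further: plate controls were untreated wells for no effect and antibiotic for full effect; wells of about 80 µL received 100 nL stock; the first replicate is given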
BJeLR lethal – BJeLR cell viability loss; inhibition, % (no concentration beside the values); hit rate 0.17% among 300,000; AID 1554; BJeLR (HRASV12) viability, CellTiter-Glo ATP luminescence, 48 h; reference of the scale not given here;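 active means replicate mean above 50%; inconclusive means above 50% but judged a plate artefact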;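 further: 50 nL library stock added to about 25 µL; numbers are from one replicate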
Mtb hypoxia inh growth – second read-out of Mtb hypoxia inh, no call of its own (marks repeat the call); growth inhibition, %; measured here: M. tuberculosis growth (absorbance);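 0% = vehicle and 100% = reference antibiotic; read after six days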
Active calls of the source: *; ? = inconclusive; . = no result given; & = joins results of further samples.

Results follow in this order: Mtb hypoxia inh, Mtb hypoxia inh growth, Sa RN4220 lethal, PrP UTR inh, Autofluor counter, Sa ugtP lethal, BJeLR lethal
- C=CCNC(=S)N(CC)c1cccc2ccccc12
 : 3, 4, 3.1, -22, 4768, 0, 5
- CNC(=O)CSc1nnc(-c2ccc3c(c2)OCO3)n1C
 : 8, 7, 5.7, -29, 4336, 9, 2
- O=C(c1cccc(Cl)c1)N1CCn2c1nc1ccccc12
 : -6, 2, 1.3, -19, 5050, 2, -5
- CCCn1c(N)c(N(CCOC)C(=O)c2cc3c(s2)CCCCC3)c(=O)[nH]c1=O
 : 11, 4, 4.1, -10, 5062, 3, -1
- O=C(NC(NC1CCS(=O)(=O)C1)C(Cl)(Cl)Cl)c1ccc(Br)cc1 (centres undefined)
 : 6, 7, -7.0, -25, 9623, -44, -13
- Clc1cc(Cl)cc(CN2CCSCC2)c1
 : 3, -7, 8.7, -11, 11552, 0, -3
- COc1cc2c(cc1OC)C(c1ccc(-c3ccccc3Cl)o1)=NCC2
 : -2, 8, 6.1, 4, 20487*, -6, 2
- C[C@]12c3[nH]c4cc(-c5ccco5)ccc4c3CCN1C(=O)[C@@H](CC(=O)NCC13CC4CC(CC(C4)C1)C3)C[C@@H]2C(=O)N1CCOCC1
 : -8, 0, -0.7, -14, 3110, -12, .
- COc1ccc(CNC(=O)c2cc3c(s2)CS(=O)C3)cc1 (centres undefined)
 : 13, 8, 3.4, 0, 6216, 12, -12
- CC(=O)Nc1ccc(NC(=S)Nc2ccc(F)cc2)cc1
 : -2, 0, 3.1, -34, 2248, 4, -7
- COC(=O)c1cc(CSc2nc3ccccc3[nH]2)oc1C
 : ., ., 1.2, -17, 2560, -3, 3
- O=C(NCCc1ccccn1)C1CCN(S(=O)(=O)c2ccc(Cl)cc2)CC1
 : 11, 17, 11, -10, 4375, 4, 3
- COc1cc(/C=C2\SC(=O)NC2=O)ccc1OCc1ccc(Cl)nc1
 : 1, 7, 7.0, -20, 4130, 16, -2
- CC(SCc1ccccc1)C(=O)N/N=C/c1cccs1 (centres undefined)
 : ., ., ., -5, 2123, ., 4
- COc1ccc(C2CC2/C(C)=N/OC(=O)c2cccs2)cc1 (centres undefined)
 : ., ., ., -10, 3558, ., -6

Next entries.
Results follow in this order: Mtb hypoxia inh, Mtb hypoxia inh growth, Sa RN4220 lethal, PrP UTR inh, Autofluor counter, Sa ugtP lethal, BJeLR lethal
- CCn1c(SCC(=O)N=Nc2c(O)[nH]c3ccccc23)nc2ccccc21
 : ., ., ., 10, 2408, ., 12
- CCc1nn(CC(=O)NCCC(C)C)c(=O)c2cc3c(OC)cccc3n12
 : 16, 1, 2.6, -36, 4047, 6, 6
- O=C(CC(C(=O)O)c1ccccc1)c1cccs1 (centres undefined)
 : -4, -1, 3.7, 4, 6146, 5, -6
- COc1ccccc1NS(=O)(=O)c1cc(NC(=O)/C=C/c2cccs2)ccc1N1CCOCC1
 : 6, -5, -0.6, -16, 1990, -18, -2
- COc1ccc(CNC2C[C@H]3CCCC(=O)N4CC[C@@H](C2)[C@@H]34)cc1 (some centres undefined)
 : 1, -2, 7.2, -3, 2988, 14, .
- CC(C)c1ccc(NC(=O)c2snc3ccc(Cl)cc23)cc1
 : 4, 18, -0.1, -74, 2173, -19, -6
- CC1CCc2c(sc(NC(=O)C3c4ccccc4Oc4ccccc43)c2C(N)=O)C1 (centres undefined)
 : 15, 5, -7.8, -24, 2124, -11, -5
- O=C(c1ccc(NC(=S)NCc2ccco2)cc1)N1CCOCC1
 : 14, 7, 4.0, -17, 3537, -2, -1
- Cc1ccc(S(=O)(=O)Nc2cccc(C(=O)NCCCn3ccnc3)c2)cc1F
 : -12, 3, -1.8, -7, 5630, -1, 15
- CC(=O)Cc1nsc(Nc2ccc(C)cc2)n1
 : 1, 10, -0.4, -4, 4452, 3, -22
- CCOC(=O)C(=O)Nc1ccccc1C#N
 : -2, 1, 3.2, -8, 2679, 7, 9
- CC(=O)Nc1ccc(NS(=O)(=O)C(F)(F)F)cc1
 : 7, 22, 6.7, -22, 19728*, -9, 5
- Cc1ccc(C(=O)Nc2ccc3c(c2)OCO3)cc1S(=O)(=O)N1CCOCC1
 : 0, -2, 0.4, -23, 5934, 2, -16
- CCOC(=O)c1ccc(Nc2cc(C)nc3ncnn23)cc1
 : 11, 5, 4.2, -24, 10056, -1, -3
- CCCn1c2c(c(O)c(C(=O)Nc3ccc(OC)cc3)c1=O)CCCC2
 : 3, -1, -9.1, -15, 2525, -4, 7

A draw from above in order of heavy-atom count, rising:
Results follow in this order: Mtb hypoxia inh, Mtb hypoxia inh growth, Sa RN4220 lethal, PrP UTR inh, Autofluor counter, Sa ugtP lethal, BJeLR lethal
- CCOC(=O)C(=O)Nc1ccccc1C#N
 : -2, 1, 3.2, -8, 2679, 7, 9
- CC(=O)Cc1nsc(Nc2ccc(C)cc2)n1
 : 1, 10, -0.4, -4, 4452, 3, -22
- CCn1c(SCC(=O)N=Nc2c(O)[nH]c3ccccc23)nc2ccccc21
 : ., ., ., 10, 2408, ., 12

Later entries
Results follow in this order: Mtb hypoxia inh, Mtb hypoxia inh growth, Sa RN4220 lethal, PrP UTR inh, Autofluor counter, Sa ugtP lethal, BJeLR lethal
- Cc1sc(NC(=O)c2ccc(Br)s2)c(C(N)=O)c1C
 : -1, 3, 1.6, ., 7911, -22, 1
- Cc1ccc2c(c1)C1CN(C)CCC1N2C(=S)NC(=O)c1ccc(Br)cc1 (centres undefined)
 : -3, 13, 0.5, -7, 4368, 7, 5
- COC(=O)C1=C[C@@H](C(=O)OC)[C@@H]2C3=C(C(=O)[C@@]2(C)NC(=O)c2ccccc2)[C@H](C)n2c(=O)n(C)c(=O)n2[C@@H]3C1
 : ., ., ., 2, 3986, ., -1
- O=c1[nH]c(=O)n(-c2cccc(Cl)c2)c(O)c1C=NCCN1CCCCC1
 : 1, 2, 2.8, -25, 11046, 5, -1
- N#CCC(=O)NN=Cc1ccc(Sc2nc3ccccc3s2)o1
 : 1, 1, 2.3, ., ., -16, .
- Cc1ccc(-c2nn(CC(=O)O)c(=O)c3ccccc23)cc1
 : -6, -12, -0.4, -31, 5981, -1, -4
- CCCc1nnc(SCC(=O)N2CCCCC2)n1CC1CCCO1 (centres undefined)
 : 13, 9, 1.9, -17, 3447, 0, -7
- COc1ccc(CNC(=O)C2CC(c3ccc(F)cc3)=NO2)cc1 (centres undefined)
 : 7, 14, 3.1, -10, 22739*, -3, -6
- Cc1c(C(C)(C)O)[nH]c2ccc(C(F)(F)F)cc12
 : 9, -2, -0.1, -17, 4293, -2, -3
- CCn1c(CCc2ccccc2)n[nH]c1=S
 : -6, -4, 11, 10, 3341, 8, -3
- Cc1ccc(S(=O)(=O)N(C)CC(=O)OCc2nnc(-c3ccccc3)o2)cc1
 : ., ., 9.7, -12, 3503, 8, 12
- CCN(CCCNC(=O)CCNC(=O)Cn1ccc2ccccc2c1=O)c1ccccc1
 : ., ., 10, 11, 3525, 8, 1
- Brc1ccc(-c2csc(N=CN3CCCC3)n2)cc1
 : -4, 3, -2.0, ., ., -1, .
- COc1ccc(-n2c(O)c(C=NCc3ccc4c(c3)OCO4)c(=O)[nH]c2=O)cc1
 : -2, 9, -0.9, -18, 6012, -3, -1
- Cc1ccccc1NS(=O)(=O)c1cc(C(=O)Nc2cccnc2)ccc1C
 : 1, -1, 3.4, -6, 5182, 2, 14

The results go on.
Results follow in this order: Mtb hypoxia inh, Mtb hypoxia inh growth, Sa RN4220 lethal, PrP UTR inh, Autofluor counter, Sa ugtP lethal, BJeLR lethal
- O=C(Nc1cccnc1)/C(N=Nc1cccnc1)=C(\O)c1ccccc1
 : ., ., ., 1, 2660, ., 10
- CCc1cc(C(=O)Cc2nc3ccccc3s2)c(O)cc1OCC(=O)O
 : 16, 7, 4.6, -14, 4985, 8, -4
- Cc1cc(-c2ccccc2)nc2[nH]n(-c3ccccc3)c(=O)c12
 : 13, 6, 1.8, -14, 9382, 21, -1
- COc1ccc(OC)c(NC(=O)c2cnn(-c3ccccc3Cl)c2NC(=O)c2ccco2)c1
 : 3, -2, -0.4, -5, 10229, -5, 0
- CN1C2CCC1CC(OC(=O)c1c[nH]c3ccccc13)C2 (centres undefined)
 : 6&2&11, 1&11&3, 2.4&4.5&2.3, -12&-31, 5178&11111, -3&1&7, 10
- Cc1cccc(OCC(=O)NN=CCC(C)c2ccccc2)c1C (centres undefined)
 : 8, 5, 3.6, ., ., -1, .
- CCCc1cc(=O)oc2cc(OC(C)C(=O)NCc3ccccn3)c(Cl)cc12 (centres undefined)
 : -1, 0, 3.1, -5, 6304, 2, -10
- Cc1ccc2nc(NC3=NCN(Cc4cccnc4)CN3)nc(C)c2c1
 : 5, 7, 3.7, -28, ?, 0, .
- COc1ccccc1CN1CC(=O)N2CSC[C@H]2C1=O
 : -14, 1, 4.2, -1, 3690, 7, -3
- CN1C(c2ccccc2)CCOS1(=O)=O (centres undefined)
 : 11, 13, 6.7, -25, 3952, 2, -6
- CCCOc1ccc(NC(=O)C2CC(=O)N/C(=N/N=C(\C)CCc3ccc4c(c3)OCO4)S2)cc1 (centres undefined)
 : ., ., ., -5, 2214, ., 10
- Cc1cc(NC(=O)C2COc3ccccc3O2)no1 (centres undefined)
 : 4, 8, 1.6, -25, 4090, 9, 5
- CCOc1ccccc1CN1CCN(Cc2ccc3cccc(OC)c3n2)CC1CCO (centres undefined)
 : -7, 0, 1.7, -5, 3717, 0, 8
- Cc1ccccc1Nc1nc(N)nc(COc2ccc(C#N)cc2)n1
 : ., ., ., -31, 3186, ., 2
- COc1ccc(NC(=O)c2cc([N+](=O)[O-])ccc2N2CCN(C)CC2)cc1
 : 9, 1, 3.7, -26, 4736, 0, -1

(further entries)
Results follow in this order: Mtb hypoxia inh, Mtb hypoxia inh growth, Sa RN4220 lethal, PrP UTR inh, Autofluor counter, Sa ugtP lethal, BJeLR lethal
- Cc1ccc(CN(c2ccc(C(=O)NCc3ccc4c(c3)OCO4)cc2)S(C)(=O)=O)cc1
 : -6, 4, 2.3, -26, 11110, 4, 12
- CC1CN=C(Nc2ccc(N(C)C)cc2)S1 (centres undefined)
 : 1, -3, 3.3, -45, 9358, 3, 1
- CN1CCN(C(=S)c2cn(Cc3cccc(F)c3)c3ccccc23)CC1
 : 12, 14, 4.9, -43, 3110, 5, 5
- CC1=C(C(=O)Nc2ccccc2F)C(c2cccs2)NC(=S)N1 (centres undefined)
 : 1, -7, 4.3, -36, 4809, 8, 3
- CN1CCN(c2ncccc2S(=O)(=O)N2CCCCC2)CC1
 : ., ., -1.5, -2, 2818, -6, -6
- Cc1cccc(C(=O)NCC(=O)N2CCN(S(=O)(=O)c3ccccc3)CC2)c1
 : -3, 0, -1.9, -10, 6592, 4, 6

Of the compounds above, nine have a thiophene ring, fused or not:
Results follow in this order: Mtb hypoxia inh, Mtb hypoxia inh growth, Sa RN4220 lethal, PrP UTR inh, Autofluor counter, Sa ugtP lethal, BJeLR lethal
- CCCn1c(N)c(N(CCOC)C(=O)c2cc3c(s2)CCCCC3)c(=O)[nH]c1=O
 : 11, 4, 4.1, -10, 5062, 3, -1
- COc1ccc(CNC(=O)c2cc3c(s2)CS(=O)C3)cc1 (centres undefined)
 : 13, 8, 3.4, 0, 6216, 12, -12
- CC(SCc1ccccc1)C(=O)N/N=C/c1cccs1 (centres undefined)
 : ., ., ., -5, 2123, ., 4
- COc1ccc(C2CC2/C(C)=N/OC(=O)c2cccs2)cc1 (centres undefined)
 : ., ., ., -10, 3558, ., -6
- O=C(CC(C(=O)O)c1ccccc1)c1cccs1 (centres undefined)
 : -4, -1, 3.7, 4, 6146, 5, -6
- COc1ccccc1NS(=O)(=O)c1cc(NC(=O)/C=C/c2cccs2)ccc1N1CCOCC1
 : 6, -5, -0.6, -16, 1990, -18, -2
- CC1CCc2c(sc(NC(=O)C3c4ccccc4Oc4ccccc43)c2C(N)=O)C1 (centres undefined)
 : 15, 5, -7.8, -24, 2124, -11, -5
- Cc1sc(NC(=O)c2ccc(Br)s2)c(C(N)=O)c1C
 : -1, 3, 1.6, ., 7911, -22, 1
- CC1=C(C(=O)Nc2ccccc2F)C(c2cccs2)NC(=S)N1 (centres undefined)
 : 1, -7, 4.3, -36, 4809, 8, 3

Outcome played no part in choosing rows, and some 4% of all compounds hit somewhere here.
